B2AR ag: beta2AR agonists driving receptor internalization, primary screen, cell-based, FAP fluorogen, flow cytometry; Beta-2 adrenergic receptor (Homo sapiens), P07550; Am2.2-beta2AR cells; reference of the scale not given here; response, % (no concentration beside the values); 340,000 tested, 0.43% active;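 active means response above a set limit, near 3 SD of response in nonfluorescent compounds, cut at about 42% in these data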;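 further: stock transfer was 100 nL into about 11 µL; a reference agonist was the positive control; negative values mostly stem from fluorescent compounds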
Target sequence (P07550 whole entry, looked up): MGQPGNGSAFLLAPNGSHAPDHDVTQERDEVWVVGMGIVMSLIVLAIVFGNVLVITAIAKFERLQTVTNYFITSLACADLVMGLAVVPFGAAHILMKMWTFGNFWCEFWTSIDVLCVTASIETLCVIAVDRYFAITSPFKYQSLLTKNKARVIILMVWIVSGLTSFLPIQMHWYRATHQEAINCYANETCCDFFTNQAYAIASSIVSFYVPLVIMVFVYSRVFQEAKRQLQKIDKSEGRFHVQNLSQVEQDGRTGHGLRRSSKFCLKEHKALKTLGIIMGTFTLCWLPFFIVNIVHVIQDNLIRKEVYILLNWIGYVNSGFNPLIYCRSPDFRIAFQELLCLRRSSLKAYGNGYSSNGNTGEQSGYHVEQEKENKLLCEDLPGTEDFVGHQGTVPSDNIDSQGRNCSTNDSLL
E coli growth: E. coli growth inhibition, primary screen, OD600; Escherichia coli growth, 23 h; hits give low values; 330,000 tested, 0.21% active; AID 1053175, 2014; OD600 absorbance (no concentration beside the values);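 active means OD600 absorbance below the run mean of sample wells minus 3.6 SD, in any replicate, cut at about 0.56 in these data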;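 further: stock transfer was 300 nL into about 60 µL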
Vif TR-FRET: inhibitors of Vif binding to APOBEC3G peptide, primary screen, biochemical, TR-FRET, GST-Vif 1-94, biotin-A3G peptide, dose response retest (AID 1117319) | Virion infectivity factor (Human immunodeficiency virus type 1 group M subtype B (isolate … | inhibition, %; hits with a dose series show IC50 in µM | 260,000 tested, 0.57% active | TR-FRET GST-Vif / biotin-A3G peptide binding; higher % means a stronger effect; test concentration not given here; strong numbers were not always called active;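 active means above the screen mean plus three standard deviations and confirmed in dose response; inconclusive means results disagree or hit not tested in dose response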;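 further: Vif residues 1-94 fused to GST binding biotinylated APOBEC3G peptide 110-148; 0% = full assay without inhibitor and 100% = GST in place of GST-Vif; retest series ran down from 100 µM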
A1 inh: caspase 3/7 activation in MEF A1-2A-BIM cells, primary screen, A1 inhibitor project, cell-based, luminescence, HTS; Caspase-Glo 3/7 luminescence, 3 h; percent of clofoctol response, vehicle zero; caspase activation, % (no concentration beside the values); 330,000 tested, 0.066% active;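 active means over half of replicate activation scores above 10%, or exactly half above 10 with the replicate mean above 10; inconclusive means replicate mean below 10 yet half the replicates above 10; inactive means over half of replicates below 10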;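 further: wells of about 30 µL received 50 nL stock; many hits fall short of the cut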
LANA-H2A inh: blockers of LANA interaction with H2A/H2B – biochemical, FP readout, HTS, primary screen | cell-free LANA-H2A/H2B peptide, fluorescence polarization | inhibition, % (concentration not given with the values) | 320,000 tested, 0.6% active; in the data active means inhibition mostly above about 10%, no sharp cut-off; inactive means mostly below about 6.7%;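 further: stock transfer was 7.5 nL into about 10 µL; 0% = median of vehicle wells and 100% = median of positive control wells; one replicate is shown; the record names a cut of 25% in any replicate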
UCH37 inh: inhibitors of human UCH37 deubiquitinase, primary screen, biochemical, Ub-AMC cleavage, fluorescence; Ubiquitin carboxyl-terminal hydrolase isozyme L5 (Homo sapiens), Q9Y5K5; inhibition, % (test concentration not listed); purified proteasome/UCH37; 330,000 tested, 0.33% active;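 active means mean of two replicates above 20%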;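 further: 0% = compound-free wells with enzyme and 100% = wells lacking proteasome; stock transfer was 100 nL into about 20 µL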
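Material: human UCH37 enzyme supplied as purified proteasome complex. Measure: % inhibition of Ub-AMC cleavage fluorescence. Medium: pH 7.4 Tris-HCl (50 mM) with ovalbumin, ATP-MgCl2, DTT. Times: 30 min preincubation with enzyme, 25 min cleavage at room temperature. Detection: AMC fluorescence intensity at 355/460 nm.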
HNF4A DNA FP: change in binding of human HNF4A to DNA, primary screen, biochemical, fluorescence polarization, FITC-DNA. activity change, % at 10 µM. 360,000 tested, 0.3% active. AID 1224865, 2016. 1 h; in the data active means activity change above about 30%, passing the limit was not always enough;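 further: controls were the assay level and a saturating level of protein; the project sought stronger binding though the title names inhibitors; some compounds called inactive have numbers as strong as hits; positive values seem to mean higher polarization but the record does not say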
Target sequence (P41235 whole entry, looked up): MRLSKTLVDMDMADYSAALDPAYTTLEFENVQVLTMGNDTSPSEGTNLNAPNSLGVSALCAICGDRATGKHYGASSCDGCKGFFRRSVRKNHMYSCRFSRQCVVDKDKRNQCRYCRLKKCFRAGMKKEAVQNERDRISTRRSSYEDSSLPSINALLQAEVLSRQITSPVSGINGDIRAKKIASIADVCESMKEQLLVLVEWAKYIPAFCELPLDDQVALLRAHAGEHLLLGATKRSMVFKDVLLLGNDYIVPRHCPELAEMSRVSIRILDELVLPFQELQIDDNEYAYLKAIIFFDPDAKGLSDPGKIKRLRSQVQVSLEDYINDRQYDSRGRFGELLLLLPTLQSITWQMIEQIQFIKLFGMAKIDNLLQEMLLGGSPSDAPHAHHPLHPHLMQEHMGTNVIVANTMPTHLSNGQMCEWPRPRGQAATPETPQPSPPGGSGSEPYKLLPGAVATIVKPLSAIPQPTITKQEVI
An asterisk follows results filed as active.

Screening CCOc1ccc(NC(=O)C(C)Oc2ccccc2C(=O)Nc2ccc(C)c(Cl)c2)cc1 (stereo unspecified) returned B2AR ag 14, E coli growth 0.73, Vif TR-FRET inconclusive, A1 inh -1.2, LANA-H2A inh 8.3, UCH37 inh 1.2 and HNF4A DNA FP 0.5.
`CN(c1c(C#N)c(C(F)(F)F)nn1C)N(S(C)(=O)=O)S(C)(=O)=O` gave B2AR ag -1, E coli growth 0.64, Vif TR-FRET 8%, A1 inh 1.9, LANA-H2A inh -5.1, UCH37 inh 1.1 and HNF4A DNA FP -0.6.
For Cc1cccc(NC(=O)CSc2ccc(-c3cccs3)nn2)c1C the results were B2AR ag -9, E coli growth 0.71, A1 inh 0.2, LANA-H2A inh -1.3, UCH37 inh -0.1 and HNF4A DNA FP -3.4.
Screening O=C(CN1C(=O)C2CC=CCC2C1=O)NCC(=O)Nc1ccc(F)c(F)c1 (stereo unspecified) returned B2AR ag -4, A1 inh -0.1, LANA-H2A inh -0.9 and HNF4A DNA FP -2.9.
For CCN(Cc1nc(-c2cccc(Cl)c2)no1)CC1CCCO1 (stereo unspecified) the results were B2AR ag -2, E coli growth 0.66, Vif TR-FRET -15%, A1 inh -0.5, LANA-H2A inh -8.4, UCH37 inh 1.0 and HNF4A DNA FP 3.0.
`COC(CNC(=O)CN1CCN(Cc2ccccc2F)C1=O)OC` gave B2AR ag 2, E coli growth 0.68, Vif TR-FRET 5%, A1 inh -0.2, LANA-H2A inh 4.2, UCH37 inh -1.2 and HNF4A DNA FP -2.7.
O=C(COc1ccccc1)Nc1nnc(C23CC4CC(CC(C4)C2)C3)s1 was read as B2AR ag 5, E coli growth 0.75, Vif TR-FRET -3%, A1 inh 1.3, LANA-H2A inh -0.2, UCH37 inh 0.6 and HNF4A DNA FP 0.2.
`COc1ccccc1N1CCN(/N=C/c2ccccc2C(=O)O)CC1` gave B2AR ag -2, Vif TR-FRET -5%, A1 inh 0.9, LANA-H2A inh -4.0 and HNF4A DNA FP 1.1.
For COc1ccc(NC(=S)Nc2ccccn2)c(OC)c1 the results were B2AR ag -7, E coli growth 0.68, Vif TR-FRET -3%, A1 inh 0.0, LANA-H2A inh -3.5, UCH37 inh 2.2 and HNF4A DNA FP -1.0.
For CCCC(C(=O)NC(C)(C)CC)N(Cc1ccco1)C(=O)CNS(=O)(=O)c1ccccc1 (stereo unspecified) the results were B2AR ag -1, E coli growth 0.62, A1 inh 0.3, LANA-H2A inh 5.6, UCH37 inh -0.7 and HNF4A DNA FP 3.2.
Screening O=S(=O)(Nc1ccc2c(c1)OCO2)c1cccc(Br)c1 returned B2AR ag 2, E coli growth 0.64, Vif TR-FRET 7%, A1 inh 0.4, LANA-H2A inh -414, UCH37 inh 1.2 and HNF4A DNA FP 0.3.
COc1ccc(NC(=O)N(CCCN2CCOCC2)Cc2cccnc2)c(OC)c1 was read as B2AR ag 2, E coli growth 0.7, A1 inh 0.3, LANA-H2A inh 8.1, UCH37 inh 6.5 and HNF4A DNA FP 2.2.

Reprinted from the part before: 3 compounds, then new ones.
For CCCC(C(=O)NC(C)(C)CC)N(Cc1ccco1)C(=O)CNS(=O)(=O)c1ccccc1 (stereo unspecified) the results were B2AR ag -1, E coli growth 0.62, A1 inh 0.3, LANA-H2A inh 5.6, UCH37 inh -0.7 and HNF4A DNA FP 3.2.
Screening O=S(=O)(Nc1ccc2c(c1)OCO2)c1cccc(Br)c1 returned B2AR ag 2, E coli growth 0.64, Vif TR-FRET 7%, A1 inh 0.4, LANA-H2A inh -414, UCH37 inh 1.2 and HNF4A DNA FP 0.3.
COc1ccc(NC(=O)N(CCCN2CCOCC2)Cc2cccnc2)c(OC)c1 was read as B2AR ag 2, E coli growth 0.7, A1 inh 0.3, LANA-H2A inh 8.1, UCH37 inh 6.5 and HNF4A DNA FP 2.2.
Screening O=C(COC(=O)c1nc(Cl)ccc1Cl)Nc1ccc2[nH]c(=O)[nH]c2c1 returned B2AR ag -3, A1 inh 0.1, LANA-H2A inh 1.8 and HNF4A DNA FP 3.7.
Screening CN(C)C(CNC(=O)c1ccc(S(=O)(=O)Nc2ccccc2)cc1)c1ccco1 (stereo unspecified) returned B2AR ag 8, E coli growth 0.64, Vif TR-FRET 1%, A1 inh -0.4, LANA-H2A inh 5.3, UCH37 inh 0.3 and HNF4A DNA FP -2.8.
Screening COC(=O)c1c(NC(=O)CCS(=O)(=O)c2ccccc2)sc2c1CCN(C)C2 returned B2AR ag -1, E coli growth 0.69, Vif TR-FRET -4%, A1 inh -1.0, LANA-H2A inh -3.5, UCH37 inh -0.5 and HNF4A DNA FP 14.
COC(=O)c1ccccc1NC(=O)CSc1n[nH]c(-c2ccco2)n1 was read as B2AR ag 1, E coli growth 0.65, A1 inh 0.3, LANA-H2A inh 2.6, UCH37 inh 2.5 and HNF4A DNA FP -0.9.
For C=C(c1ccccc1O)n1ccnc1 the results were B2AR ag -7, E coli growth 0.64, Vif TR-FRET 2%, A1 inh 0.4, LANA-H2A inh -2.5, UCH37 inh -0.1 and HNF4A DNA FP 2.4.
Cc1cc(C)c(-c2csc(NC(=O)/C=C/c3cccs3)n2)c(C)c1 was read as B2AR ag 17, E coli growth 0.73, A1 inh 0.1, LANA-H2A inh -4.7, UCH37 inh -16 and HNF4A DNA FP -4.7.
Screening COCCNC(=O)CSc1nnc(-c2ccccc2)c(-c2ccccc2)n1 returned B2AR ag 5, E coli growth 0.65, Vif TR-FRET 4%, A1 inh -0.5, LANA-H2A inh -0.4, UCH37 inh 6.1 and HNF4A DNA FP 4.2.
Screening COC(=O)C(C(=O)Nc1ccccc1C)C1CCCCCC1 (stereo unspecified) returned B2AR ag -2, E coli growth 0.68, Vif TR-FRET 2%, A1 inh 0.7, LANA-H2A inh 1.0, UCH37 inh 1.5 and HNF4A DNA FP -1.7.
Screening NC(=NCCc1ccccc1)NC(=O)c1cc(Cl)ccc1O returned B2AR ag -2, E coli growth 0.6, A1 inh -0.9, LANA-H2A inh -3.4, UCH37 inh -117 and HNF4A DNA FP -1.6.
COc1ccc(NC(=O)CCCCn2c(=O)[nH]c3ccccc3c2=O)cc1 was read as B2AR ag -9, E coli growth 0.74, Vif TR-FRET 22%, A1 inh 0.2, LANA-H2A inh 0.7, UCH37 inh 1.7 and HNF4A DNA FP 2.4.
For Brc1ccc(-c2csc3ncnc(-n4nnc5ccccc54)c23)cc1 the results were B2AR ag -9, E coli growth 0.67, Vif TR-FRET inconclusive, A1 inh 0.0, LANA-H2A inh -3.4, UCH37 inh 0.8 and HNF4A DNA FP 3.1.
`Cc1cc(C)cc(N(CC(=O)NC(C)(C)C)C(=O)CCC(=O)Nc2nccs2)c1` gave B2AR ag -2, E coli growth 0.72, Vif TR-FRET 7%, A1 inh -0.1, LANA-H2A inh -1.6, UCH37 inh 3.0 and HNF4A DNA FP 2.4.
Screening Cc1cc(NC(=O)CSc2nc3c(cnn3-c3cccc(Cl)c3)c(=O)[nH]2)no1 returned B2AR ag 7, E coli growth 0.72, A1 inh 0.1, LANA-H2A inh 1.1, UCH37 inh -2.1 and HNF4A DNA FP 3.4.
`CC(C)(C)c1csc(NC(=O)c2ccc(Br)o2)n1` gave B2AR ag 5, E coli growth 0.68, Vif TR-FRET -2%, A1 inh 0.9, LANA-H2A inh 1.3, UCH37 inh 1.4 and HNF4A DNA FP -4.1.
`CC(O)(C#CCN1CCCC1)c1ccccc1` (stereo unspecified) gave B2AR ag 2, E coli growth 0.69, Vif TR-FRET 13%, A1 inh 0.2, LANA-H2A inh -4.3, UCH37 inh 3.3 and HNF4A DNA FP 0.3.
Screening COc1ccccc1CNC(=O)COC(=O)CSc1ccc(C)c(C)c1 returned B2AR ag -2, E coli growth 0.64, Vif TR-FRET 5%, UCH37 inh 4.0 and HNF4A DNA FP -1.2.
O=C(O)c1ccccc1Nc1ccc2nonc2c1[N+](=O)[O-] was read as B2AR ag -5, E coli growth 0.68, Vif TR-FRET 5%, UCH37 inh 11 and HNF4A DNA FP -0.9.
For CN(CC(=O)Nc1ccc(Cl)cc1)C(=O)CNC(=O)c1ccc2c(c1)OCO2 the results were B2AR ag -3, E coli growth 0.68, Vif TR-FRET -3%, A1 inh 1.2, LANA-H2A inh 2.4, UCH37 inh 1.7 and HNF4A DNA FP 2.2.
For Cc1nc(NCCc2ccccc2F)c(C#N)c(C)c1[N+](=O)[O-] the results were B2AR ag 5, E coli growth 0.71, Vif TR-FRET 5%, A1 inh 0.4, LANA-H2A inh 0.2, UCH37 inh 1.0 and HNF4A DNA FP -3.9.
CC1=C(C(=O)OCc2ccccc2)C(c2ccc(N(C)C)cc2)NC(=O)N1 (stereo unspecified) was read as B2AR ag -4, E coli growth 0.66, Vif TR-FRET -5%, A1 inh -1.7, LANA-H2A inh 0.1, UCH37 inh -7.7 and HNF4A DNA FP -0.5.
`CCSc1c(-c2ccccc2)nc2c(C)cccc2c1C(=O)O` gave B2AR ag 10, E coli growth 0.7, Vif TR-FRET 4%, A1 inh 0.5, LANA-H2A inh 0.3, UCH37 inh 0.8 and HNF4A DNA FP -2.2.
`OC1(c2cccc(C(F)(F)F)c2)CCN(c2ncnc3c2[nH]c2ccc(F)cc23)CC1` gave B2AR ag 0, E coli growth 0.64, Vif TR-FRET 28%, UCH37 inh -9.2 and HNF4A DNA FP 0.5.
COc1cc(OC)c2c3c(c(C4CCCCC4)nc2c1)CCC3 was read as B2AR ag 2, E coli growth 0.65, A1 inh 1.2, LANA-H2A inh 1.0, UCH37 inh -5.4 and HNF4A DNA FP 6.0.
Screening COc1cc(-c2noc(C)c2C#Cc2ccsc2)cc(OC)c1OC returned B2AR ag 27, E coli growth 0.7, A1 inh 2.4, LANA-H2A inh -0.2, UCH37 inh 0.2 and HNF4A DNA FP 0.1.
For CCCCn1c2nc3ccccc3nc2c2c(=O)n(-c3ccccc3)cnc21 the results were B2AR ag -10, E coli growth 0.71, Vif TR-FRET 7%, A1 inh 1.0, LANA-H2A inh -4.0, UCH37 inh -243 and HNF4A DNA FP 0.2.
For COc1cc(C(NC=O)C(=O)Nc2c(C)cccc2C)ccc1O (stereo unspecified) the results were B2AR ag -4, E coli growth 0.7, Vif TR-FRET -1%, A1 inh -0.2, LANA-H2A inh -0.6, UCH37 inh 0.5 and HNF4A DNA FP -1.5.
Screening CCCCNC(=O)[C@H]1C[C@H]1[C@@H](O)[C@H](CO)NC(=O)[C@H](COCc1ccccc1)NC(=O)OC(C)(C)C returned B2AR ag 5, A1 inh 0.5, LANA-H2A inh -9.3, UCH37 inh 4.2 and HNF4A DNA FP 6.9.
Screening COc1ccc(NC(=O)CCC(=O)N2CCCC2)c([N+](=O)[O-])c1 returned B2AR ag -4, E coli growth 0.72, A1 inh -0.5, LANA-H2A inh -4.7, UCH37 inh 0.0 and HNF4A DNA FP -0.9.
`Cc1nc(N)nc(N)c1-c1ccc(Cl)c(Cl)c1` gave B2AR ag -324, Vif TR-FRET -10% and HNF4A DNA FP -3.9.
For NC(=O)[C@@H]1CCCN1Cc1nc(Cc2ccccc2F)no1 the results were B2AR ag -9, E coli growth 0.62, Vif TR-FRET -8%, A1 inh 0.3, LANA-H2A inh -5.4, UCH37 inh 4.4 and HNF4A DNA FP 1.4.
Screening O=C(Cc1ccccc1)O/N=C1\CCCc2ccccc21 returned B2AR ag 1, Vif TR-FRET 2%, A1 inh -3.1 and HNF4A DNA FP -3.9.

Source: PubChem BioAssay (several laboratories)
